Compound activity from PubChem BioAssay.
BJeLR lethal: MLPCN primary cell-based screen for lethality selective to Ras in HRASV12 cells. BJeLR (HRASV12) viability, CellTiter-Glo ATP luminescence, 48 h; reference of the scale not given here. inhibition, % (test concentration not listed). 300,000 compounds, 0.17% hits. AID 1554, 2009;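 active = replicate mean above 50%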;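 also: 50 nL library stock added to about 25 µL; numbers are from one replicate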
Sa RN4220 lethal: growth inhibition of S. aureus RN4220, primary screen, OD600; 16 h; inhibition, % (concentration not given with the values); AID 1259311, 2017; 330,000 compounds, 0.33% hits;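 active = z-score of -3 or lower and OD600 up to 0.18 on both plates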;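 also: plate controls were untreated cells for no effect and reference antibiotic for full effect; stock transfer was 100 nL into about 80 µL; one replicate is shown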
Bead autofluor: flagged as autofluorescent in microsphere protease counterscreen | 360,000 compounds, 3.1% hits | fluorescence intensity (test concentration not listed) | compound autofluorescence counterscreen, microsphere flow cytometry; stronger effect = higher value;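 active = at least 3 SD above the mean of all compounds, about 16000 in these data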;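 also: 100 nL of 1 mM stock went into each well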
Mtb hypoxia inh: PubChem AID 1159583. 300,000 compounds, 0.1% hits. fluorescence inhibition, % (no concentration beside the values). M. tuberculosis hypoxia-regulated fluorescent reporter, fluorescence;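 active = 35 to 45% if threefold the growth effect, above 45% if 1.5-fold the growth effect; inactive = the rest, general growth blockers included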;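 also: wells of about 50 µL received 100 nL stock; 0% = vehicle wells and 100% = reference inhibitor wells; whole bacteria with a GFP reporter of the hypoxia response; strong numbers were not always called active; many hits fall short of the cut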
ugtP null kill: growth inhibition of ugtP-null S. aureus, primary screen, RN4220 ugtP deletion, OD600 | 16 h; some inactives read as strong as hits | growth inhibition, % (concentration not given with the values) | 330,000 compounds, 0.54% hits | AID 1259309, 2017;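 active = z-score under -3 and OD600 up to 0.15 on both plates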;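 also: plate controls were untreated wells for no effect and antibiotic for full effect; wells of about 80 µL received 100 nL stock; the first replicate is given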
PrP 5UTR inh: inhibition of PrP 5' UTR reporter expression | cell-based PrP 5' UTR mRNA reporter, plate reader | inhibition, % (test concentration not listed) | 340,000 compounds, 0.35% hits | AID 488862, 2010;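 active = every replicate at 50% or more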;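 also: 0 = median of the neutral control wells; tested in H4 reporter cells; numbers are from one replicate; inactives centre near -14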
Mtb hypoxia inh growth: also measured in Mtb hypoxia inh; calls as there; growth inhibition, %; measured here: M. tuberculosis growth (absorbance);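 0% = vehicle and 100% = reference antibiotic; read after six days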
Starred values were filed as active, the others as inactive; x = no result given.

Below each compound: Mtb hypoxia inh	ugtP null kill	PrP 5UTR inh	Sa RN4220 lethal	Mtb hypoxia inh growth	Bead autofluor	BJeLR lethal
O=C(NNC(=O)c1cc(C(F)(F)F)cc(C(F)(F)F)c1)c1ccc(Cl)cc1
→ 11	8	x	-0.6	7	4550	-4
C=CCn1c(SCC(=O)Nc2nc3ccccc3s2)nc(O)c(CC)c1=O
→ 11	3	-30	7.7	13	4226	9
CCN1CCN(C(c2cccs2)C(C)NC(=O)c2ccccc2)CC1 (stereo unspecified)
→ 2	-2	-9	2.3	3	5988	7
C=CCn1c(Oc2ccc(C(=O)OC)cc2)nc2c1c(=O)n(C)c(=O)n2C
→ 12	15	-12	6.7	14	3156	3
COc1cc2c(c(OC)c1CC=C(C)C)C[C@H](c1ccc(O)cc1O)CO2
→ x	63	15	6.4	x	6797	-1
CC(C)Oc1ccc(C(=O)Nc2cccc3cccnc23)cc1
→ 6	5	-36	2.9	-1	4287	6
CN1CCN(C(=O)c2cc(Br)cn2C)CC1
→ 13	5	-13	0.7	9	3338	1
CCN(CC)C(=O)[C@H]1C[C@H](CC(=O)NC(C)(C)C)C(=O)N2CCc3c([nH]c4ccc(Cl)cc34)[C@]12C
→ -3	-6	-13	6.0	4	4617	x
CCNC(=O)Cn1c(=O)c(=O)n(Cc2ccccc2)c2ccc(Cl)cc21
→ -6	2	-21	0.6	3	2251	8
COc1cccc(CN2CCN(C(=O)c3cccc(OC)c3)CC2)c1
→ 10	7	-16	-0.1	19	3553	-5
O=C(C1=C[C@@H](c2ccc3c(c2)OCO3)C[C@@H](OCCCCO)O1)N1CCN(Cc2ccc3c(c2)OCO3)CC1
→ x	x	2	x	x	3115	19
COc1cccc(NC(=O)NNC(=O)c2ccc3c(c2)NC(=O)C(C)(C)O3)c1
→ -1	8	-8	1.4	6	5969	-5
COc1ccc(C2CC(=O)C=C(c3ccc(F)cc3OCc3ccccc3)C2)cc1OC (stereo unspecified)
→ 4	13	x	-1.7	6	x	x
CC1CC(C)CN(S(=O)(=O)N2CCCC(C(=O)NCCCN3CCOCC3)C2)C1 (stereo unspecified)
→ 6	14	-30	4.3	7	5633	2
Cc1c(NC(=O)CN2C(=O)NC3(CCCCC3)C2=O)c(=O)n(-c2ccccc2)n1C
→ -2	-1	8	1.0	8	3843	10
CC(=O)NN=Cc1cc([N+](=O)[O-])ccc1OCCOc1ccccc1
→ -5	16	x	13	-6	x	x
O=[N+]([O-])c1ccc2c(c1)C(O)n1ncnc1S2 (stereo unspecified)
→ -2	4	-2	14	-2	4124	-2
CCNC(=S)NNC(=O)c1ccc(OC)cc1
→ 8	6	-2	9.6	5	2506	-4
Cc1ccc(/C=N/NC(=O)Nc2ccccc2)o1
→ x	x	-66	x	x	2419	-2
Cc1ccc(/C=N/n2c(C)n[nH]c2=S)o1
→ x	x	-41	x	x	22498*	-1
NS(=O)(=O)c1ccc(CCNC(=O)CNC(=O)c2ccccc2F)cc1
→ -7	5	-20	0.7	8	5622	-1
NC(=S)Nc1nccc(-c2cccs2)n1
→ 3	9	-21	3.1	10	4527	24
COc1ccc(NC(=O)CCNS(=O)(=O)c2cc(Br)cnc2N)c(OC)c1
→ 5	0	-31	2.8	3	5276	4
Cn1cc(CN2CCC(O)CC2)c(-c2ccc(Oc3ccccc3)cc2)n1
→ 15	9	-8	1.1	1	1876	3
N#CCOC(=O)C1c2ccccc2Oc2ccccc21
→ 7	1	-9	3.2	14	4727	-4
CCCCN(CC)Cc1ccc(CNC(=O)Nc2ccc(Cl)cc2)o1
→ 2	-8	-12	-8.9	5	5350	-6
O=C(CCCCCN1C(=O)c2ccccc2C1=O)Nc1ccccc1
→ 13	6	-22	3.2	3	9863	5
O=C1c2ccccc2C(=O)N1CCCCc1cn(CC2CCC(C3CCC(Cn4cc(CCCCN5C(=O)c6ccccc6C5=O)nn4)O3)O2)nn1 (stereo unspecified)
→ 5	10	x	5.6	4	x	x
O=C(C(Cc1ccccc1)NS(=O)(=O)c1ccc(Cl)cc1)N1CC[C@@]2(O)CCCCC2C1 (stereo partly specified)
→ 11	-6	x	6.3	4	x	x
Cc1cc(C)n(C(=O)/C=C/c2cccs2)n1
→ 13	3	-6	8.7	6	3827	3
O=C1CC(c2ccco2)CC2=C1C1c3ccccc3C(=O)N1c1ccccc1N2 (stereo unspecified)
→ 7	-13	-19	-18	2	2442	13
COc1cccc(CN(C(=O)c2ccccc2)C2CCS(=O)(=O)C2)c1 (stereo unspecified)
→ 5	0	-3	1.8	14	5716	-1
CCCCCCCCCCCCC(=O)CCCCC(=O)O
→ x	-11	-27	5.6	x	5596	10
CN(C(=O)Cn1cnc2ccccc2c1=O)C1CCS(=O)(=O)C1 (stereo unspecified)
→ -2	-3	-4	-2.5	-4	x	-3
C[C@H]1OC[C@@H](C[N+](C)(C)C)O1
→ x	x	-3	x	x	5768	5
O=C1CC(c2ccccc2)Cc2nc(NCc3ccco3)ncc21 (stereo unspecified)
→ -7	-8	-16	-0.1	0	8550	0
O=C(NCC(c1cccnc1)N1CCOCC1)c1ccc2c(c1)OCO2 (stereo unspecified)
→ -10	-1	-3	1.0	-3	3876	-2
CC1CN(C(=S)Nc2ccc(Br)cc2)CC(C)O1 (stereo unspecified)
→ -1	6	-4	-1.5	11	3475	6
CCN(CC)S(=O)(=O)c1cc(NC(=O)CSc2nnc(N)s2)ccc1C
→ 6	2	-5	1.4	0	9420	x
O=C(NCCCN1CCOCC1)[C@@H]1CSC2c3ccccc3C(=O)N21 (stereo partly specified)
→ x	-7	-27	0.6	x	3656	2
CCN(CC)C(=O)Cn1cc(S(=O)(=O)CC(=O)N2CCOCC2)c2ccccc21
→ 13	2	-11	2.2	0	5126	5
C/C(=N\NC(=O)Cc1ccc(Cl)cc1)c1ccc(F)cc1
→ x	x	-20	x	x	4072	-5
O=C(COc1ccc(Br)cc1Cl)Nn1cnnc1
→ 5	2	-12	1.4	6	4915	-6
CC(C)C(Nc1ccc(C(F)(F)F)cc1[N+](=O)[O-])C(=O)O (stereo unspecified)
→ 16	-1	-26	3.2	14	4799	6
CCCOC(=O)C1=C(C)OC23OC(N)=C(C#N)C12C(=O)c1ccccc13 (stereo unspecified)
→ 5	2	-27	8.1	8	2448	-14
COC(=O)c1c(C)oc(C)c1S(=O)(=O)NCc1ccco1
→ 10	9	-15	4.5	4	4873	-2
CCCC(=O)N(Cc1cc(=O)[nH]c2ccccc12)c1cccc(C)c1
→ 10	10	-23	3.5	3	2873	5
Cc1cccc(-c2nnc(-c3ccccc3)o2)c1
→ x	-14	-120	7.1	x	2353	1
CCCCNC(=O)Cn1c(=O)c2c(ncn2CCC(C)C)n(Cc2ccccc2)c1=O
→ -3	1	-17	1.1	0	3644	-3
O=C(NC1CCCC1)C(c1ccncc1)N(Cc1ccccc1)C(=O)c1ccc(-c2ccccc2)[nH]1 (stereo unspecified)
→ 12	5	-13	7.5	8	2557	-3
N#Cc1ccc(-c2ccc(OCC(O)CN3CCCCC3)cc2)cc1 (stereo unspecified)
→ 5	4	-13	-0.6	-13	3941	6
CCn1c(COc2ccccc2Cl)nnc1SCC(=O)Nc1ncccc1C
→ 13	6	-2	5.2	3	2019	-1
Cc1ccc(NCc2n[nH]c(=S)n2Cc2ccccc2)cc1Cl
→ 11	8	0	14	0	4307	3
CC(NCC(=O)Nc1cc(S(=O)(=O)N2CCOCC2)ccc1N1CCOCC1)c1ccco1 (stereo unspecified)
→ 9	8	-22	3.3	9	3346	x
COC(=O)CSc1nnc2n(C3CCCCC3)c(=O)c3c4c(sc3n12)CCCC4
→ -11	-4	-11	-3.0	-19	8015	-6
C=CCNC(=S)NNc1nc2c(c(=O)[nH]1)C1(CCCC1)Cc1ccccc1-2
→ -4	23	-20	-1.3	0	2574	5
O=C(Nc1ccc(C(=O)NN2C(=O)c3ccccc3C2=O)cc1)c1ccccc1
→ 4	8	-12	-3.0	11	3265	-3
CCCC(=O)Nc1nnc(SCC(=O)Nc2ccc3c(c2)OCO3)s1
→ x	x	-13	x	x	1989	5
O=C1CC(=O)N(c2cccc(C(F)(F)F)c2)C(=O)N1
→ 15	4	-8	3.7	-6	3834	14
COc1ccc(OC)c(NC(=O)CN2CCC(NC(=O)c3ccccc3C)CC2)c1
→ 20	7	-25	1.4	4	3992	-6

Part of the list above, limited to Mtb hypoxia inh, Sa RN4220 lethal and BJeLR lethal:
compound	Mtb hypoxia inh	Sa RN4220 lethal	BJeLR lethal
CCNC(=S)NNC(=O)c1ccc(OC)cc1	8	9.6	-4
Cc1ccc(/C=N/NC(=O)Nc2ccccc2)o1	x	x	-2
Cc1ccc(/C=N/n2c(C)n[nH]c2=S)o1	x	x	-1
NS(=O)(=O)c1ccc(CCNC(=O)CNC(=O)c2ccccc2F)cc1	-7	0.7	-1

Further records follow:
Below each compound: Mtb hypoxia inh	ugtP null kill	PrP 5UTR inh	Sa RN4220 lethal	Mtb hypoxia inh growth	Bead autofluor	BJeLR lethal
Fc1ccc(Cn2nnnc2C(c2ccc(F)cc2)N2CC=C(c3ccc(F)cc3)CC2)cc1 (stereo unspecified)
→ 11	10	-1	5.2	5	2701	-1
Cn1nc([N+](=O)[O-])nc1N1CCN(c2ccc(F)cc2)CC1
→ 2	9	-28	1.8	1	10936	-9
COc1ccc(C(=O)NC(=S)Nc2ccc(S(N)(=O)=O)cc2)cc1
→ 0	82	-22	4.6	2	4102	7
Cc1c(Cl)cccc1Nc1nc(N)nc(CSCCO)n1
→ x	3	-5	2.4	x	2729	-7
COc1ccc(OCC(O)CN2CCC(CN3C(=O)c4cccc5cccc(c45)C3=O)CC2)cc1 (stereo unspecified)
→ 8	11	-9	-1.3	13	3893	-2
CCCCN(C)C1CCN(C(=S)Nc2ccc(OCC)cc2)CC1
→ 2	-4	-20	-1.2	-5	4584	1
CCc1nnc(NC(=O)c2cc(-c3ccccn3)nc3ccc(Br)cc23)s1
→ -9	-16	1	5.1	5	6043	1
CCOC(=O)c1ccccc1NC(=O)c1c(O)[nH]c(=O)[nH]c1=O
→ 3	-5	-24	6.2	6	4415	-10
Cc1nn(CC(C)C)c2sc(C(=O)NC3CC(C)(C)NC(C)(C)C3)cc12
→ x	x	-21	x	x	3543	-8
C=C1CCC[C@]2(C)C[C@H]3OC(=O)C(CNCCN(CC)CC)[C@H]3CC12 (stereo partly specified)
→ 2	5	-17	-0.2	-2	3968	-2
O=C(COC(=O)/C=C/c1ccc(S(=O)(=O)N2CCOCC2)cc1)Nc1ccc(F)c(F)c1F
→ 8	6	-18	3.6	0	2923	x
Cc1ccc2c(c1)CCCN2C(=O)NC1CCCCC1
→ 7	1	-10	0.3	13	2624	-8
CCC(c1nnnn1C(C)(C)C)N1CCN(C2CCCC2)CC1 (stereo unspecified)
→ x	-2	-12	1.5	x	2559	-2
O=c1[nH]c2ccc(NS(=O)(=O)c3ccc([N+](=O)[O-])cc3)cc2[nH]1
→ 11	0	-6	3.2	4	3749	4
CCOC(=O)COC(=O)c1ccc(O)cc1
→ -5	7	-10	3.9	3	16105	-10
CNC(C)c1ccc(S(N)(=O)=O)cc1 (stereo unspecified)
→ 6	4	-25	2.2	-8	4823	5
Cc1cc(C)nc(N/N=C/c2cc(C)n(CC(F)(F)F)c2C)n1
→ x	x	-33	x	x	4567	9
Cc1nc(Nc2ccc3c(c2)OCCO3)c2oc3ccccc3c2n1
→ 12	-7	-28	1.8	10	2440	-13
COc1ccc(CCNC(=O)/C(=C/c2cccnc2)NC(=O)c2ccccc2)cc1
→ 3	6	-11	2.4	4	1901	10
Cc1cccc(C)c1OCc1nc2ccccc2c(=O)n1/N=C/c1ccc(OCC(=O)O)cc1
→ x	x	-9	x	x	2948	6
Cc1ccc(CN2CCN(Cc3ccccc3C(F)(F)F)CC2)cc1
→ 5	49	-3	4.2	-1	8025	5
COc1ccc(C(=O)COc2ccccc2C(=O)Nc2ccccc2)cc1
→ 14	-6	-32	-12	-2	3241	2
Brc1ccc(-c2csc(/N=C/N3CCCC3)n2)cc1
→ x	x	-23	x	x	2006	-13
